Source: PubChem BioAssay
Biofilm kill mix – mixture kills Candida albicans biofilm cells. C. albicans biofilm persisters + clotrimazole, fluorescence viability; primary screen in compound mixtures of four per well. inhibition, % at 7.6 µM. 120,000 compounds, 0.02% hits. AID 1242;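 active = inhibition above 30.3% in the primary screen of four-compound pools, then above 30% when the compound was retested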;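 note: compounds exposed to preformed 24 h biofilms for 48 h; the number belongs to the whole pool; some results filed as inactive read as strong as hits; inactives centre near 12; 0% = biofilm with clotrimazole alone and 100% = kill control; retested singly at about 60 µM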
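Assay system: C. albicans biofilms / Medium: RPMI/MOPS medium, pH 7.0 / Schedule: biofilm formation 24 h, compound exposure 48 h, 37 °C / Measured by: Alamar Blue fluorescence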
Numbers without * were called inactive. Not all compounds are listed. The share of hits here may be higher or lower than overall.

SMILES	Biofilm kill mix
Cc1cc(CNC(=O)c2cc(-c3ccccc3)nc3ccccc23)nn1C	11.2
CN(CCc1cn[nH]c1)C(=O)CC1C(=O)NCCN1Cc1cccc(Oc2ccccc2)c1 (stereo not given)	-18.0
CCn1cc(Cl)c(C(=O)N2N=C(c3ccc4ccccc4c3)CC2c2ccccc2O)n1 (stereo not given)	4.8
Cc1ccc(NC(=S)N2CCC(N(C)CC3CCCO3)CC2)cc1 (stereo not given)	17.0
C=CCn1c(O)c(CN2CCCCC2)c(C)c(C#N)c1=O	26.4
O=C(Nc1cccc(C(=O)O)c1)/C(=C\c1ccccc1)NC(=O)c1cccc2ccccc12	9.8
O=C(Nc1nnc(-c2ccncc2)o1)c1cccc(N2C(=O)CCC2=O)c1	13.7
Cc1cc(C(F)(F)F)n(-c2nc(C(=O)NN)cs2)n1	21.1
CC1CCc2c(sc(NC(=O)c3nc4ncccn4n3)c2C#N)C1 (stereo not given)	19.1
O=C(NCCCCc1ccccc1)C1CC(c2cc(C(F)(F)F)cc(C(F)(F)F)c2)=NO1 (stereo not given)	14.2
CCc1nnc2n1N=C(c1ccc([N+](=O)[O-])cc1)CS2	9.8
CCc1ccc2nc(N=C(N)N)nc(C)c2c1	13.5
CCCCCCCCCS(=O)(=O)Nc1cc(C)ccn1	20.2
Cc1ccccc1NC(=O)c1c(C)nc(SCC(=O)OCc2ccccc2)c(C#N)c1-c1ccc(F)cc1	10.2
Clc1cncc(Cl)c1NNc1c2ccccc2nc2ccccc12	11.4
CCOC(=O)c1ccc(NC(=S)N(CCN2CCCCCC2)Cc2cccs2)cc1	12.8
COc1ccc(NCC(O)Cn2cnc3c2c(=O)n(C)c(=O)n3C)cc1 (stereo not given)	7.2
O=C(Nc1nc(-c2ccccc2)cs1)c1cccc([N+](=O)[O-])c1C(=O)O	16.1
CCn1ccnc1CN(C)Cc1cn(-c2ccc(C)cc2)nc1-c1cccc(C)c1	28.5
O=C(Nc1ccc(-c2csnn2)cc1)C(Cl)(Cl)Cl	21.1
COc1ccccc1NC(=O)c1c(N=Cc2cccc([N+](=O)[O-])c2)cnn1C	17.5
COc1cc(O)c(C(C)=O)c(CC(=O)O)c1	14.1
O=C(NCc1ccc(F)cc1)C(=O)NCC1OCCN1C(=O)c1ccc(Cl)cc1 (stereo not given)	8.9
CCCCCC1(C(=O)OCC)CC(CSC(=N)N)OC1=O (stereo not given)	25.9
COc1ccc(C(=O)N/C(=C/c2cccs2)C(=O)NC(C)(C)C)cc1OC	8.0
CN(C)c1cccc(NC(=O)c2ccco2)c1	3.7
NC(=O)NOCc1c(F)cccc1Cl	0.7
CN(C)CCCN(Cc1ccc2c(c1)OCO2)C(=O)NC1CCCCC1	-0.2
O=C(Nc1nnc(SCc2cccc3ccccc23)s1)C1COc2ccccc2O1 (stereo not given)	15.2
COC(=O)Cc1[nH]c(Cl)nc1C(N)=O	15.4
Cc1oc(/C=N/NS(=O)(=O)c2ccccc2)cc1Br	12.9
Cc1cccc(-n2cc(CN3CCCN(C=O)CC3)c(-c3cccc(F)c3)n2)c1	8.8
CC1CCN(CCC(=O)Nc2ccc(Cl)cc2)CC1	0.2
CSCC[C@H](NC(=O)Nc1ccc(Oc2ccccc2)cc1)C(=O)O	11.0
CCC(=O)CCC(=O)c1ccc2ccccc2c1	9.0
Cc1ccccc1CN(CC(=O)Nc1cccc([N+](=O)[O-])c1)S(=O)(=O)c1ccc(Cl)cc1	10.8
CSc1ccccc1C(=O)NCCOc1ccccc1C	6.6
CCN(CC)CCOC(=O)c1ccc(NC(=O)CNC(=O)C2CCCCC2)cc1	26.3
CCCC(=O)NC(c1ccccc1Cl)c1c(O)ccc2ccccc12 (stereo not given)	12.9
NC(=O)C1CCN(CCC(=O)Nc2ccc3c(c2)CCC3)CC1	15.3

Exported as comma-separated lines: entries from further up
Compound,Biofilm kill mix
Cc1ccccc1CN(CC(=O)Nc1cccc([N+](=O)[O-])c1)S(=O)(=O)c1ccc(Cl)cc1,10.8
CSc1ccccc1C(=O)NCCOc1ccccc1C,6.6
CCN(CC)CCOC(=O)c1ccc(NC(=O)CNC(=O)C2CCCCC2)cc1,26.3

Next entries
SMILES	Biofilm kill mix
O=C(COC(=O)CNC(=O)C12CC3CC(CC(C3)C1)C2)NC1CCS(=O)(=O)C1 (stereo not given)	9.7
O=C(O)c1ccc(COc2ccccc2/C=C2\NC(=O)N(Cc3ccccc3F)C2=O)cc1	11.4
Cc1ccc(NC2=CC(=O)CC(c3ccccc3)C2)cc1 (stereo not given)	10.3
O=C(NCCCn1ccnc1)/C(=C/c1ccco1)NC(=O)c1ccco1	18.9
CC(C)(C)C1CCC(=NNc2nc3ccccc3[nH]2)CC1 (stereo not given)	12.7
NNC(=O)CNc1ccccc1Cl	10.1
CCOC(=O)C1(C)Oc2cccnc2NC1=O (stereo not given)	6.7
O=C(COC(=O)CCc1ccc(S(=O)(=O)N2CCOCC2)cc1)NCc1ccccc1Cl	4.4
CCCCNC(=S)N1CCn2cccc2C1c1ccc(F)cc1 (stereo not given)	1.9
Cc1cc2c(c(SCC(=O)NCc3ccc(Cl)cc3)n1)C(=O)OC2	22.7
CC(NC(=O)CSc1n[nH]c(=O)[nH]c1=O)C1CC2CCC1C2 (stereo not given)	15.9
O=C(O)c1ccccc1Nc1ccnc(Cl)n1	22.9
CCOC(=O)c1cccc(NC(=O)N2CCOCC2)c1	-1.9
COC(=O)C(=CC(=CN(C)C)C=C(C(=O)OC)C(=O)OC)C(=O)OC	18.7
O=C(NC(=S)NCC1CCCO1)c1ccco1 (stereo not given)	17.4
CCn1c(SCC(=O)c2c[nH]c3ccccc23)nc2cc(S(=O)(=O)N3CCOCC3)ccc21	7.5
Cc1ccc(C2C(C(=O)c3cccs3)=C(O)C(=O)N2c2cccc(C)n2)cc1 (stereo not given)	27.0
CN(C)S(=O)(=O)c1ccc(C(=O)Nc2ccccc2SCCC#N)cc1	9.8
O=C(c1c[nH]c2ccccc2c1=O)N1CCCCCC1	-8.1
Cc1cccc(OCCCn2c(=O)oc3ccc(C)cc32)c1	4.5
O=C(c1ccccc1)N(Cc1ccc(F)cc1)Cc1nc2ccccc2c(=O)[nH]1	3.7
COc1ccccc1CNC(=O)CN(Cc1ccc(Cl)cc1)S(C)(=O)=O	12.1
Cc1nn(C)c(C)c1NC(=O)CCCSc1nc(-c2ccco2)cc(C(F)(F)F)n1	17.1
COc1cc(OC)cc(C(=O)NCc2ccc(-n3cccc3)cc2)c1	15.5
O=[N+]([O-])c1cc2oc3c(c2c(C=NCc2ccncc2)c1O)CCCC3	15.6
CC(=O)Nc1ccc(NC(=O)C(Cc2ccccc2)NC(=O)C2CCC(C)CC2)cc1 (stereo not given)	11.9
Cc1nc2ccc(S(=O)(=O)Nc3ccc(-c4nc5cccnc5s4)cc3)cc2s1	14.3
N#C/C(=C\c1ccc(-c2cccc([N+](=O)[O-])c2)o1)C(=O)Nc1nc(-c2cccs2)cs1	14.3
COC(=O)CCC(=O)OC1(C)C(=O)C2=COC(c3ccc(OC)cc3)=CC2=C(Br)C1=O (stereo not given)	7.3
COc1ccc(/C=N/NC(=O)c2c(C)nc3ccc(Br)cn23)cc1OC	12.8
Cc1ccc(C2=N/C(=C\c3cccnc3)C(=O)O2)cc1	7.4
COC(=O)N/N=C/c1cc(Cl)c(OCc2ccc(F)cc2)c(OC)c1	15.3
O=C(Cn1cnc2cc([N+](=O)[O-])ccc2c1=O)Nc1ccccc1-c1ccccc1	6.4
N#Cc1ccc(NC(=S)NCCN2CCOCC2)cc1	6.3
O=C(O)CNC(=S)NCc1ccccc1	25.0
CCn1c(CN2CCN(c3ccc(Cl)cc3)CC2)nc2ccccc21	20.1
CCCCCCCCn1c2c(c(=N)c3c1CCC3)CCCC2	-1.3
C=CCc1cc(/C=C/c2nc(O)c([N+](=O)[O-])c(=O)[nH]2)cc(OC)c1O	13.0
COc1ccc(CCN(Cc2ccccn2)C(=S)Nc2ccc(C)cc2)cc1OC	11.0
C(=N\Nc1nccc(-c2cccnc2)n1)/c1ccccc1	26.1
CC1=C(C(=O)Nc2ccc(C)cc2)C(c2cccs2)NC(=S)N1 (stereo not given)	24.9
O=Cc1cnc(N2CCOCC2)nc1	9.7
O=C(CSc1nnc2ccccn12)Nc1cccc(-c2nc3ccccc3s2)c1	18.3
O=C1Nc2ccccc2C1(O)Cc1ccccn1 (stereo not given)	5.9
CCn1cc([N+](=O)[O-])c(C(=O)N2N=C(c3cccc4ccccc34)CC2c2ccccc2O)n1 (stereo not given)	3.8
CCc1ccc[n+](-c2[nH]c(=O)sc2/C=N/NC([S-])=Nc2ccccc2)c1	2.5
CCOc1ccc(OCCn2nnc3ccccc3c2=O)cc1	11.0
Cc1ccccc1NC(=S)NCCSc1ccc(Cl)cc1	6.5
CCOC(=O)C1(CC2CC2)CCN(Cc2cn[nH]c2-c2ccccc2)CC1	20.3
CC1(C)CC(N2CCN(CCO)CC2)=CC(=S)N1	11.7
Next compounds follow:
SMILES	Biofilm kill mix
COc1ccc([N+](=O)[O-])cc1N(CC(=O)Nc1ccccc1C(=O)NC(C)C)S(C)(=O)=O	6.8
COc1ccccc1CCNC(=O)c1nc(-c2cccs2)no1	16.4
CC1=C[C@H]2Cc3cc(C)cc(C)c3S(=O)(=O)[C@@H]2C=C1	4.5
Cc1ccc2nc(-c3ccncc3)cc(C(=O)Nc3ccc4c(c3)OCCO4)c2c1	4.8
COc1ccc(C(=O)C[n+]2cccc(Br)c2)cc1	32.6
COc1cc(C2c3cc4c(cc3C(OC3OC5COC(c6cccs6)OC5C(O)C3O)C3COC(=O)C23)OCO4)cc(OC)c1O (stereo not given)	28.1
O=C(Cn1cnc2ccccc2c1=O)Nc1ccc2c(c1)OCO2	7.4
CC(C)NC(=O)c1ccc(Cl)cc1Cl	12.9
Cc1ccc(C(=O)N/C(=C\c2cccs2)C(=O)NCc2cccnc2)cc1	10.0
FC(F)(F)c1cc(-c2cccs2)nc2cc(-c3ccccc3)nn12	11.1

Fetched one by one from above:
SMILES	Biofilm kill mix
COc1ccccc1CCNC(=O)c1nc(-c2cccs2)no1	16.4
COc1cc(C2c3cc4c(cc3C(OC3OC5COC(c6cccs6)OC5C(O)C3O)C3COC(=O)C23)OCO4)cc(OC)c1O (stereo not given)	28.1
CC(C)NC(=O)c1ccc(Cl)cc1Cl	12.9

The listing continues.
SMILES	Biofilm kill mix
C/C(=N/NC(=O)Cc1c(C)[nH][nH]c1=O)c1ccc(O)cc1	8.4
COc1ccc(N(Cc2cc3ccccc3[nH]c2=O)S(C)(=O)=O)cc1	13.8
Cc1nn(Cc2ccc(Cl)cc2)c2sc(C(=O)O)cc12	8.6
CCOC(=O)c1ccc(NC(=O)CN2C(=O)CCC2=O)cc1	10.0
COc1ccc(CNC(=O)CSc2ccc(Br)cc2)cc1OC	14.4
COc1cc2c(C(=O)N3CCN(c4ccccc4F)CC3)cn(C)c(=O)c2cc1OC	11.4
CCOC(=O)COc1ccc2ccccc2c1/C=C/[N+](=O)[O-]	13.5
CCCCN(C(C)=O)C1CC(=O)N(c2ccc(OCCC)cc2)C1=O (stereo not given)	5.5
Cc1ccc(C)n1-c1cccc(NC(=O)c2ccccc2)c1	19.6
CC1CC(C)CN(C(=O)C2CCC(CNc3c(N4CCCCC4)c(=O)c3=O)CC2)C1 (stereo not given)	25.0
O=C(COC(=O)c1oc2ccccc2c1COc1ccccc1)NCCN1C(=O)CSC1=O	8.3
CC(C)CC(=O)NC(=S)Nc1ccc(N2CCN(C(=O)c3cccs3)CC2)cc1	19.9
O=C(Cn1cc(SCc2ccc(F)cc2)c2ccccc21)N1CCOCC1	4.1
CCOC(=O)C1=NOC2C3CC(C12)C1C(=O)N(CCc2ccc(OC)c(OC)c2)C(=O)C31 (stereo not given)	13.9
COc1cc(/C=C2\SC(=S)N(N3CCOCC3)C2=O)ccc1O	5.4
COc1ccccc1Nc1cc(C(=O)N2CCc3ccccc3C2)c2ccccc2n1	17.9
COc1cccc(NC(=O)CNC(=O)c2ccc(OC)c(OC)c2)c1	7.5
CCOC(=O)COc1cccc2c(=O)n(CC(=O)NCCc3ccccc3)ccc12	7.9
CCOC(=O)C1CCN(c2cc(C)nc3ccc(OC)cc23)CC1	13.1
CC(=O)NNc1ncnc2c1cnn2-c1ccc(C)c(C)c1	17.2

Shown in CSV form: part of the list above.
SMILES,Biofilm kill mix
CCOC(=O)C1=NOC2C3CC(C12)C1C(=O)N(CCc2ccc(OC)c(OC)c2)C(=O)C31 (stereo not given),13.9
COc1cc(/C=C2\SC(=S)N(N3CCOCC3)C2=O)ccc1O,5.4
COc1ccccc1Nc1cc(C(=O)N2CCc3ccccc3C2)c2ccccc2n1,17.9
COc1cccc(NC(=O)CNC(=O)c2ccc(OC)c(OC)c2)c1,7.5
CCOC(=O)COc1cccc2c(=O)n(CC(=O)NCCc3ccccc3)ccc12,7.9

New compounds follow.
SMILES	Biofilm kill mix
Cc1cccc2c(N=Nc3ccc(S(=O)(=O)Nc4ccc(Cl)cc4)cc3[N+](=O)[O-])c(O)[nH]c12	13.8
CCCCc1ccc(/C=C(\C#N)C(N)=S)s1	21.8
NNC(=O)c1n[nH]c(=O)c2ccccc12	43.3
O=C(COC(=O)c1ccccc1C(=O)c1ccccc1)NCCc1ccccc1	24.7
Cc1ccc(C(=O)Nc2cc([N+](=O)[O-])ccc2F)s1	18.3
CC(=O)c1cc(-c2ccccc2)n(CC(=O)NC(C)(C)C)c1C	22.2
Cc1noc(C)c1COc1ccc(CC(=O)NC2CCCCCC2)cc1	-9.6
N#C/C(=N\Nc1ccccc1)C(N)=S	13.6
O=C(NC1CCN(C(=O)Nc2ccccc2Cl)CC1)c1ccccc1	0.8
COC(=O)c1cc(NC(C)=O)ccc1N1CCOCC1	13.3
CN(C)c1cc[n+](CC(=O)N2CCCc3ccccc32)cc1	19.9
CCCNC(=O)Cn1sc2nc(C)cc(C)c2c1=O	13.6
O=c1c(Br)c(N2CCCC2)cnn1-c1ccccc1	7.5
O=C(COC(=O)Cc1ccccc1F)Nc1ccc(SC(F)F)cc1	13.5
O=C(NC1CCCC1)C(c1ccccc1)N(C(=O)c1ccno1)c1ccccc1 (stereo not given)	9.7
CCc1ccc(/C([O-])=C(/C(=S)NCCN2CCOCC2)[n+]2ccccc2)cc1	27.4
